# Vaccinia Venus: qHTS for Stage-Specific Inhibitors of Vaccinia Orthopoxvirus: Venus Reporter Primary qHTS; Vaccinia virus Venus reporter expression, fluorescence; Potency, µM (top dose mostly 36.5 µM), for inactives: at the highest dose activity change, negative = inhibition, most hits filed as inhibitors; 0.46% of 330,000 active; AID 720580, 2013; active means well fitted inhibition curve with a large enough effect; inconclusive means small, poorly fitted or top-dose-only effect; inactive means no such curve, though single readings can be large or run the other way; tested in A549 cells; also: nearly all actives have a fitted effect of over 30% in size; inactives centre near -10
# VACV mCherry inh: qHTS for Stage-Specific Inhibitors of Vaccinia Orthopoxvirus: mCherry Reporter Primary qHTS | AID 720579, 2013 | 0.63% of 310,000 active | Potency, µM (highest dose often 36.5 µM), inactives show at the highest dose activity change, negative = inhibition, actives largely listed as inhibitors | Vaccinia virus mCherry reporter infection, fluorescence; about a quarter of the inactives have no number; active = well fitted inhibition curve with a large enough effect; inconclusive = small, poorly fitted or top-dose-only effect; inactive = no such curve, though single readings can be large or run the other way; tested in A549 cells; also: nearly all actives have a fitted effect of over 35% in size; inactives centre near -10
# * = called active by the depositor; i = inactive; ? = inconclusive; . = not tested or not shown; [ ] = remark or other dose. % is scaled to controls: 0 for no effect and ±100 for the full control effect; potency is read from the fitted curve at half-maximal effect.
compound | Vaccinia Venus | VACV mCherry inh
N#C/C(C(N)=O)=C1/CCc2ccccc2N1 | -10.6% | -27.9%
CC(=O)c1sc(NC(=O)c2ccc(C(C)(C)C)cc2)nc1C | 6.6% | 6.6%
CCOc1ccccc1NC(=O)Cn1c(=O)n(CCCC(=O)NCc2ccc(C)cc2)c(=O)c2ccccc21 | -4.6% | -18.4%
CCn1cc(C(=O)N2CCN(c3ccc(F)cc3)CC2)c(=O)c2cc(S(=O)(=O)N3CCOCC3)ccc21 | -6.9% | -10.5%
CC1(C)Cc2ccccc2C(Nn2cnnc2)=N1 | -2.6% | -10.9%
O=C(COC(=O)c1ccc(Br)o1)Nc1cccc(S(=O)(=O)N2CCOCC2)c1 | 3.5% | i
Cc1cc(OCC(=O)NCC(c2cccs2)N2CCOCC2)ccc1C(C)C (stereo not drawn) | -3.7% | i
CC(C)(C)NCC(O)COc1ccccc1C(=O)CCc1ccccc1 (stereo not drawn) | ? | ?
Cc1ccc(/C=C(\C#N)c2nc3ccccc3[nH]2)s1 | -7.3% | -14.7%
COc1cc(C(=S)N2CCOCC2)ccc1OC(=O)Cc1ccc(F)cc1 | -7.8% | i
Cc1ccc(CC(=O)NCC(O)c2ccccc2)cc1 (stereo not drawn) | -7.6% | i
Cc1cc2c(=O)c(C(=O)c3ccncc3)cn(CC(=O)Nc3cccc(C)c3C)c2cc1C | -0.9%[7.34 µM] | -12.3%[7.34 µM]
Cc1ccc(-c2cccc(NC(=O)C3C(C(=O)O)[C@@H]4C=C[C@H]3C4)c2)o1 (stereo partly drawn) | -15.2% | .
Cn1c(NCCCO)nc2c1c(=O)n(Cc1cccc(F)c1)c(=O)n2C | 4.5% | -11.9%
CCCCN(C(=O)c1cc(=O)[nH]c2ccccc12)c1c(N)n(CCC)c(=O)[nH]c1=O | -0.7% | -8.4%
CCN(CC)C(=O)/C(NC(=O)c1ccccc1)=C(/Sc1ncccn1)c1ccccc1 | -4.4% | -5.2%
Cc1ccc(-c2oc3ccccc3c(=O)c2OCC(=O)O)cc1 | -11.2% | -10.8%
COC(=O)C1=C(c2cccc(C#N)c2)C[C@@H]2CC[C@H]1N2C(=O)NCCOc1ccc(OC)cc1 | -5.5% | -7.0%
Nc1nc2ccccc2n1CCOc1ccccc1Cl | ? | .
COC(=O)C1=C(c2ccc(Cl)c(C(F)(F)F)c2)C[C@@H]2CC[C@H]1N2C(=O)NC(C)C | -15.4% | i

# (further entries)
compound | Vaccinia Venus | VACV mCherry inh
O=C(CCN1C(=O)C2CCCCC2C1=O)Nc1nc(-c2ccc(F)c(F)c2)cs1 (stereo not drawn) | -22.7% | -31.9%
Cc1cc(NC(=O)CCC(=O)N(c2ccc(C)c(F)c2)C(C(=O)NC2CCCC2)c2ccco2)no1 (stereo not drawn) | -7.4% | -12.8%
CC(=O)c1c(C)[nH]c(C(=O)Nc2ccc3c(c2)OCCO3)c1C | -13.8% | -17.9%
CCCCCCNC(=O)CCCCCNS(=O)(=O)c1ccc(OC)cc1 | -8.6% | i
CCOc1ccc(S(=O)(=O)Nc2ccc3oc(C)c(C(=O)OCCOC)c3c2)cc1 | -29.0% | -29.4%
Cc1cc(C)n(C(=O)c2ccc(Cl)c(F)c2F)n1 | -6.2% | i
Cc1nnc(-c2cccc(C(F)(F)F)c2)nc1N1CCOCC1 | -3.5% | -13.1%
CC(C)C(c1nnnn1Cc1ccc2c(c1)OCO2)N1CCN(c2ccccc2)CC1 (stereo not drawn) | -6.7% | i
CNC(=O)C1CC(=O)N(Cc2ccc(OC)c(OC)c2)C(=Nc2ccc(OC)cc2)S1 (stereo not drawn) | -5.3% | .
O=C(Cn1cc(S(=O)(=O)Cc2ccccc2Cl)c2ccccc21)Nc1ccc(F)cc1F | -2.4% | -10.9%
COc1cccc(-c2csc(-c3c(N)c(C(=O)c4ccc5c(c4)OCO5)n4ccccc34)n2)c1 | -0.8% | -6.8%
CCN(C(=S)Nc1cc(S(=O)(=O)N2CCOCC2)ccc1Cl)c1cccc2ccccc12 | 4.1% | -2.2%
COc1ccc2c(c1)NC(=O)C2CC(=O)N1CCOc2c(cc(-c3cnc4ccccc4c3)cc2OC)C1 (stereo not drawn) | -10.6% | -23.7%
O=[N+]([O-])c1cccc(Cn2cnc3c(=S)nc[nH]c32)c1 | -1.5% | -22.0%
COc1ccc(OC)c(NC(=O)N2CCc3ccccc3C2)c1 | -14.0% | -21.5%
O=C(COc1ccccc1)N(Cc1cccnc1)c1nc2ccc(Cl)cc2s1 | -5.7% | -17.8%
CC1(C)CCCC2(C)C3C(O)CC2(C)C(O)C31 (stereo not drawn) | 0.0% | i
NC(=O)NC(Cc1ccccc1)c1ccccc1 (stereo not drawn) | -10.5% | -7.3%
CC(=O)N(C)c1ccc(OCC(O)Cn2c3ccc(Cl)cc3c3cc(Cl)ccc32)cc1 (stereo not drawn) | -7.9% | -2.6%
CCN1CCN(S(=O)(=O)c2ccc(Cl)nc2)CC1 | ? | .

# Following part.
compound | Vaccinia Venus | VACV mCherry inh
CCCc1c(C)c2ccc(OCC(C)=O)cc2oc1=O | ? | .
Cc1cc(C)cc(N(CC(=O)NC2CCCCC2)C(=O)c2ccc(C)s2)c1 | -18.9% | -21.0%
COC(=O)CCc1cccc(CCC(=O)OC)c1 | 1.3% | -18.7%
Cc1ccccc1NS(=O)(=O)c1ccc(NS(=O)(=O)c2cccs2)cc1 | -3.2% | i
Cc1nc(NC(=O)c2cc3ccccc3o2)ccc1Br | -13.3% | -19.2%
COc1cc2c(cc1OC)n(CC(=O)c1cc(C)ccc1C)c(=O)n1nc(CCn3nc(C)cc3C)nc21 | -11.0% | -5.7%
Cc1cccc(CNc2cc(-c3ccccc3C)ncn2)c1 | -17.8% | -4.6%
CCCCN(C(=O)CSCC(=O)Nc1ccc(OC)cc1)c1c(N)n(Cc2ccccc2)c(=O)[nH]c1=O | -16.4% | -14.9%
CC(C)COC(=O)N1CC(O)CC1C(=O)Nc1ccc2c(c1)OCO2 (stereo not drawn) | -3.5% | -7.8%
CCN1C(=O)N(C(C)=O)C2C1N(C(C)=O)C(=O)N2C(C)=O (stereo not drawn) | 6.1% | -14.0%
CN1CC(c2ccccc2)C(c2ccc(Cl)cc2)=N1 (stereo not drawn) | 3.7% | -1.8%
CSc1nnc(-c2cccc(NC(=S)NN)c2)o1 | -12.3% | i
Cc1nc2cc(C(=O)O)ccc2n1-c1ccc(C(C)C)cc1 | 12.2% | -2.4%
CCOC(=O)NCc1ccc(CNC(=O)OCC)cc1 | 1.6% | .
CC(C)(CO)NC(=S)NCc1ccco1 | -16.0% | i
CC1(C(=O)NS(=O)(=O)c2ccc3ccccc3c2)CCN1C(=O)Cc1ccc(-c2ccccc2)cc1 (stereo not drawn) | 0.0% | 15.7%
COc1ccccc1NC(=O)c1nc(SCc2ccc(F)cc2)ncc1Cl | -6.3% | -7.2%
COc1cccc(CC(=O)OC(C)C(=O)Nc2ccc(Cl)cn2)c1 (stereo not drawn) | 4.2% | i
CC1C(O)=C(c2ccccc2)P(=O)(Cc2ccccc2)C1C (stereo not drawn) | 2.5% | 3.8%
COc1cccc(-n2c(SCC(=O)Nc3ccc4c(c3)CCC4)nc3ccccc3c2=O)c1 | -13.4% | i

# (listing goes on)
compound | Vaccinia Venus | VACV mCherry inh
COC(CNC(=O)c1ccc2c(c1)ncn2-c1cccc(F)c1)OC | -0.7% | i
CCOc1cc([N+](=O)[O-])cc(/C=N/NC(=O)c2c(-c3ccccc3)noc2C)c1O | -14.4% | ?
CCCCN1C(=O)C(CC(=O)NC(c2ccccc2)c2ccccc2)CC(C(=O)N2CCCCCC2)=C1C (stereo not drawn) | 2.9% | -6.8%
O=C1CC(N2CC=C(c3ccccc3)CC2)C(=O)N1c1ccc(F)cc1 (stereo not drawn) | 2.8% | 1.5%
COc1cccc(NC(=O)CSC2=Nc3ccccc3C3=NC(CC(=O)NCc4ccc5c(c4)OCO5)C(=O)N23)c1 (stereo not drawn) | -9.7% | -11.7%
O=c1[nH]c(/C=C\c2cccs2)nc(O)c1[N+](=O)[O-] | -3.7% | i
COc1ccc(C(=O)NC2CCN(C(=S)Nc3ccccc3)CC2)cc1 | -7.0% | i
CCOC(=O)c1cc2ccccc2n1C1CCN(CCc2ccccc2)CC1 | -10.4% | -7.9%
CCCCn1c(/N=C/c2cc(OC)ccc2O)nc2ccccc21 | 3.55µM* | ?
Cc1cccc2cc(C#N)c(SCC(=O)NCC3CCCO3)nc12 (stereo not drawn) | -7.8% | -12.0%
COc1ccccc1C1SCC(=O)Nc2c1c(C)nn2-c1cccc(C)c1 (stereo not drawn) | 3.3% | 13.9%
c1ccc(Oc2ccc(-c3ccnc4ncnn34)cc2)cc1 | -15.3% | -19.6%
COc1ccc(CC(=O)Nc2ccc3nc(C)sc3c2)cc1OC | 0.4% | -3.0%
N#C/C(=C\C1=C(N2CCOCC2)C(=C\c2ccc(Cl)cc2)/CC1)C(=O)Nc1ccccc1F | 32.9%[activator] | -8.8%
CC(C)C[C@H](NC(=O)c1[nH]cnc1C(=O)N[C@@H](C)C(=O)OCc1ccccc1)C(=O)OCc1ccccc1 | -8.5% | i
CCOC(=O)c1c(CN2CCCCC2)oc2ccc(O)cc12 | -17.0% | .
Clc1ccc2nc(C3CCCCC3)c(CC3CCCCC3)n2c1 | 5.7% | 21.5%
O=C(CSc1nnc(-c2ccccc2O)n1-c1ccccc1)Nc1cccc(C(=O)O)c1 | 0.8% | i
CCCC(C(=O)Nc1ccc(S(=O)(=O)N2CCCC2)cc1)c1ccccc1 (stereo not drawn) | -27.7% | -10.2%
CC(=O)Nc1ccc2c(c1)nc(CCNC(=O)c1ccccc1)n2C | -12.5% | i

# Additional entries.
compound | Vaccinia Venus | VACV mCherry inh
COc1ccc(C(=O)CSc2nnc(-c3cc(C)cc(C)c3)o2)cc1 | -4.7% | -11.6%
Cc1noc(C)c1COC(=O)CNC(=O)c1ccc(Cl)cc1 | -3.8% | i
COc1ccc(-c2noc(COc3cc(C)ccc3C)n2)cc1OC | -7.1% | -17.6%
O=C(c1cn2ccccc2n1)N1CCc2c([nH]c3ccccc23)C1c1ccccn1 (stereo not drawn) | 1.2% | -20.1%
COc1ccccc1OCCNC(=O)c1cccc(S(=O)(=O)N2CCN(C)CC2)c1 | -1.7% | i
O=C(NCC(c1ccco1)N1CCCC1)c1cccc(NS(=O)(=O)c2ccccc2)c1 (stereo not drawn) | -10.9% | i
Cc1nc(-c2nc(-c3c(C(=O)NNC(=O)c4ccc(Cl)cc4)noc3C)cs2)cs1 | -17.4% | -28.0%
CC(=O)N1CC(=O)Nc2ccc(Cl)cc2C1c1ccccc1 (stereo not drawn) | -11.4% | i
NC1=NC(=O)/C(=C/c2ccccc2OS(=O)(=O)c2ccccc2)S1 | -18.3% | -25.5%
CC(C)NC(=O)N1c2ccccc2Sc2ccccc21 | -11.0% | -1.2%
CC(C)C(=O)Nc1ccc(N2CCN(c3ccc(F)cc3)CC2)cc1 | -6.8% | i
O=C(COC(=O)c1ccccc1Nc1ccc(SC(F)F)cc1)NC1CC1 | -3.7% | -6.5%
COc1cccc2c(=O)cc(C)n(CC(=O)Nc3ccc(C)c(C)c3)c12 | ? | .
CCOn1c(=O)c(-c2ccc(OC)c(OC)c2)[n+]([O-])c2ccccc21 | -11.9% | -23.7%
O=C1CC2(CC(c3ccc(Cl)cc3)=NO2)C(=O)N1c1ccccc1 (stereo not drawn) | -3.1% | i
Cc1ccc(S(=O)(=O)N2CCN(C(=O)COC(=O)COc3ccc(Cl)c(C)c3)CC2)c(C)c1 | -17.5% | i
COc1ccc2[nH]c(C)cc(=O)c2c1 | -11.8% | .
CCC(=O)Nc1cccc(-c2cn3ccccc3n2)c1 | -11.5% | i
O=C(O)c1cc(-c2ccc(N3CCOCC3)cc2)nn1-c1ccc(F)cc1F | -9.4% | -7.7%
Cc1cc(N2CCC(C)CC2)nc2cccc(O)c12 | ? | -7.4%

# Next section.
compound | Vaccinia Venus | VACV mCherry inh
COc1ccc(S(=O)(=O)N(CC(=O)NCc2ccccc2)c2ccc(C)cc2)cc1OC | 11.2% | -6.3%
COc1ccc(CCNC(=O)CSc2nc(O)c(CC(C)C)c(=O)[nH]2)cc1OC | -18.4% | .
CCOC(=O)c1c(NC(=O)C2CCCN(S(=O)(=O)c3ccccc3)C2)sc2c1CCCC2 (stereo not drawn) | -14.1% | -14.7%
COc1cc(SC)ccc1C(=O)NCCOc1ccc(F)cc1 | -12.2% | -2.5%
Cn1c(SCc2ccc(Cl)cc2)nnc1-c1ccc(NC(=O)CCc2ccccc2)cc1 | -14.3% | -2.2%
COc1ccc(NC(=O)CSC2=NCCN2)cc1 | -8.1% | -9.2%
Cc1ccc(C(=O)CC(C(=O)O)n2cncn2)cc1 (stereo not drawn) | -16.1% | i
Cc1ccccc1NC(=O)CSc1nc2n(n1)CCCCC2 | -7.8% | -10.0%
CCOc1ccccc1NC(=O)CSC1=C(C#N)C(c2ccco2)C(C(=O)Nc2nc3ccccc3s2)=C(C)N1 (stereo not drawn) | -13.8% | -14.5%
Cc1csc(SCC(=O)NC(=O)NC(C)C)n1 | -15.1% | i

# Reprinted at random: 2 records from the list.
compound | Vaccinia Venus | VACV mCherry inh
Cc1ccc(C(=O)CC(C(=O)O)n2cncn2)cc1 (stereo not drawn) | -16.1% | i
CCOC(=O)c1c(NC(=O)C2CCCN(S(=O)(=O)c3ccccc3)C2)sc2c1CCCC2 (stereo not drawn) | -14.1% | -14.7%

# High-throughput results (PubChem BioAssay)
